Assay outcomes as filed in PubChem BioAssay.
NPYLR7 agonist – activates Aedes aegypti NPYLR7 receptor. HEK293T NPYLR7/Galpha15, GCaMP6s calcium fluorescence. activation, % at 10 µM. hit rate 0.15% among 270,000. AID 1259423; in the data active means activation above about 40%;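 further: 0% = vehicle and 100% = reference agonist at the receptor; some compounds past the cut are filed as inactive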
NPYLR7 agonist max-min – second read-out of NPYLR7 agonist, no call of its own (marks repeat the call); activation, %; measured here: Max-Min RFU normalised activation; some inactives read as strong as hits;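 span of the calcium signal over five minutes; 0% = vehicle and 100% = native peptide agonist; compound fluorescence can raise it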
An asterisk follows results filed as active; & = joins results of further samples.

Values in the order: NPYLR7 agonist, NPYLR7 agonist max-min
> Cc1cccc(-n2nnnc2SCC(=O)N2C(C)CCCC2C)c1C (stereo unspecified)
  -4.5, -7.6
> CC(C)c1ccc(C2=Nc3nnnn3C(c3ccc(Br)cc3)C2)cc1 (stereo unspecified)
  8.5, 4.9
> O=C(CN1CCN(C(=O)C2CCc3ccccc3C2)CC1)N1CCCC1 (stereo unspecified)
  0.3, -0.5
> CCOc1ccc(-c2nc3n(n2)C(c2ccccc2Cl)C(C(=O)Nc2cccnc2)=C(C)N3)cc1 (stereo unspecified)
  5.4, 4.0
> CC1CN(C(=O)NCCCN(C)CC(F)(F)F)CC(C)S1 (stereo unspecified)
  4.9, 3.0
> CC(C)CNCc1cccn1Cc1cccc(F)c1
  -10.9, -17.6
> Cc1ncc(CNC(=O)Nc2ccc3c(c2)NC(=O)CC3)s1
  1.0, -1.1
> COC(=O)CCCC(=O)N1CCCC(N2CCN(Cc3ccc4c(c3)OCO4)CC2)C1 (stereo unspecified)
  0.5, -2.4
> O=C(CN1C(=O)c2cc(Cl)c(Cl)cc2C1=O)c1ccc[nH]1
  1.7, 8.8
> C=C(C)CNC(=O)c1ccc(-n2nc(C(=O)OCC)cc2-c2ccccc2C)cc1
  -0.3, 9.6
> COCCCn1c(C(=O)NCc2cccnc2)cc2c(=O)n(C)c(=O)n(C)c21
  0.6, -2.1
> CC(=O)N1CCCC(N2CCN(c3cccc(C(F)(F)F)c3)CC2)C1 (stereo unspecified)
  -4.7, 5.1
> COC(=O)C1(C)CC2NC3C(c4ccccc42)c2ccccc2N31 (stereo unspecified)
  -0.3, -4.3
> FC(F)(F)c1cc(-c2ccco2)nc(-n2cc(Cl)cn2)n1
  7.0, -0.6
> Cc1n[nH]c(=O)c(C(=O)Nc2ccc(-c3ccccc3)c(C(F)(F)F)c2)c1C
  0.2, 34.7
> Cc1ccsc1CN(Cc1ccccc1)C(=O)CN(CC(C)C)C(=O)Nc1ccc(Cl)cc1
  2.4, 6.0
> CC(C)(C)CC(=O)N(CC(=O)N(CCc1c[nH]c2ccccc12)Cc1ccc(Cl)c(Cl)c1)C1CC1
  14.5, 14.6
> O=S(=O)(c1ccc(Oc2ccc(S(=O)(=O)N3CCCCC3)cc2)cc1)N1CCCCC1
  -1.6, -2.8
> Cc1ccc(Cn2c(C)c(C(=O)NCc3cccc(C)c3)sc2=O)cc1
  11.3, 2.9
> COC(=O)C(C)Sc1nc2c(c(=O)n(C)c(=O)n2C)n1CCC(C)C (stereo unspecified)
  -10.0, -12.2

Copied from the entries so far for reference:
Values in the order: NPYLR7 agonist, NPYLR7 agonist max-min
> O=S(=O)(c1ccc(Oc2ccc(S(=O)(=O)N3CCCCC3)cc2)cc1)N1CCCCC1
  -1.6, -2.8
> Cc1ccc(Cn2c(C)c(C(=O)NCc3cccc(C)c3)sc2=O)cc1
  11.3, 2.9
> COC(=O)C(C)Sc1nc2c(c(=O)n(C)c(=O)n2C)n1CCC(C)C (stereo unspecified)
  -10.0, -12.2

(next part)
Values in the order: NPYLR7 agonist, NPYLR7 agonist max-min
> CCN(CC)C(=S)SCc1nc(N)nc(Nc2ccc(C)cc2)n1
  1.5, -5.6
> CCOc1ncccc1C(=O)Nc1ccc(C#N)cc1Br
  1.0, -1.8
> COc1ccc(C(=O)CSc2nnc(-c3ccccc3F)n2-c2ccccc2C)cc1
  12.1, 16.5
> O=C(c1ccccc1Oc1ccccc1)N1C[C@@H]2[C@H](C1)[C@H]1CC[C@@H]2O1
  1.0, -1.0
> Cc1ccc(C)c(S(=O)(=O)NCCNc2cc(-n3cccn3)nc(C)n2)c1
  -5.6, -11.5
> CC(C)OCCN1CCC(NC(=O)C2=NOC(c3ccccc3)C2)CC1 (stereo unspecified)
  -1.0, -1.0
> CCN(C(=O)C(C)OC(=O)C1=NN(c2cc(C)ccc2C)C(=O)CC1)C1CCS(=O)(=O)C1 (stereo unspecified)
  3.8, 3.9
> COc1ccc(-n2ccnc2CN2CCCC(O)(CO)CC2)cc1 (stereo unspecified)
  -0.4, 1.4
> CC1CC(=NNc2nc3ccccc3[nH]2)CC(C)(C)C1 (stereo unspecified)
  3.2, -1.8
> COc1c(C)cnc(CNC(=O)C2CCN(c3ccc(Cl)nn3)CC2)c1C
  -1.9, -1.3
> Cc1cccc(N(CC(=O)N(C)Cc2n[nH]c3c2CCCCC3)S(C)(=O)=O)c1
  2.5, -2.4
> CCOc1ccc(-c2ncncc2Oc2ccccc2Br)c(O)c1
  -0.6, -4.6
> CN(Cc1ccc(Sc2nncn2C)o1)C1CCCN(Cc2ccccc2F)C1 (stereo unspecified)
  2.2, 2.2
> Cc1sc2ncn(CCC(N)=O)c(=O)c2c1-c1ccccc1
  0.3, -1.1
> C=CCN(CC(=O)N1CCc2sccc2C1c1ccc(Cl)cc1)S(=O)(=O)c1ccc(F)cc1 (stereo unspecified)
  -2.6, 6.9
> CCOC(=O)N1CCN(C(=O)c2cc(-c3ccccc3)n(-c3ccc(F)cc3F)c2C)CC1
  -17.2, -10.5
> O=C1NC(c2ccccc2)Nc2c1sc1nc3c(cc21)CCCC3 (stereo unspecified)
  -2.4, -5.1
> COc1ccc(/C=C/C(=O)N2CCCC2c2nnc3c(C(F)(F)F)cccn23)cc1 (stereo unspecified)
  15.4, 3.3
> CC1CCCCC12NC(=O)N(CCC#N)C2=O (stereo unspecified)
  -0.8, -5.3
> O=C(CCCCl)N1CCC2(CC1)SCC(=O)N2c1cccc(C(F)(F)F)c1
  1.3, -2.7

One compound at a time, as listed above:
CCN(C(=O)C(C)OC(=O)C1=NN(c2cc(C)ccc2C)C(=O)CC1)C1CCS(=O)(=O)C1 (stereo unspecified) as listed: NPYLR7 agonist = 3.8; NPYLR7 agonist max-min = 3.9
CC(C)c1ccc(C2=Nc3nnnn3C(c3ccc(Br)cc3)C2)cc1 (stereo unspecified) as listed: NPYLR7 agonist = 8.5; NPYLR7 agonist max-min = 4.9

(cont.)
Values in the order: NPYLR7 agonist, NPYLR7 agonist max-min
> COc1ccc(-c2ccccc2NC(=O)C2CCCN2C(=O)c2cccnc2)cc1 (stereo unspecified)
  -0.6, -3.3
> CC1(C(=O)NCc2ccccc2)Cc2c(-c3ccccc3)ccnc2O1 (stereo unspecified)
  0.4, -0.9
> O=C(Cn1cccn1)NCc1nc(-c2cccc(F)c2)c(-c2ccccn2)[nH]1
  2.7, 1.7
> C=CCO[C@H]1[C@H](NC(=O)CSC)c2ccccc2C12CCN(Cc1nc(C(C)C)cs1)CC2
  11.9, 1.8
> O=C(NC1Cc2ccccc2C1)C1CCN(Cc2c(-c3ccco3)nc3ncccn23)CC1
  2.7, 23.9
> COc1cc(OC)cc(-n2c(-c3ccco3)nc3nc4ccccc4nc32)c1
  5.3, -5.8
> O=C(NCCSCc1ccco1)c1cc(-c2cccnc2)nc2ccccc12
  5.7, 8.1
> CCCN(Cc1ccccc1OC)C(=O)c1cc(C)c(C)s1
  -13.2, -14.5
> Cn1cccc1-c1cc(C(=O)N2CCN(C/C=C/c3ccccc3)CC2)n(-c2ccc(Cl)c(Cl)c2)n1
  -13.6, -3.0
> CCn1c(C)nnc1SCCNC(=O)c1csc(C)n1
  -3.1, -6.2

Three compounds from above, arranged by heavy-atom count, low to high:
Values in the order: NPYLR7 agonist, NPYLR7 agonist max-min
> CC1(C(=O)NCc2ccccc2)Cc2c(-c3ccccc3)ccnc2O1 (stereo unspecified)
  0.4, -0.9
> O=C(NCCSCc1ccco1)c1cc(-c2cccnc2)nc2ccccc12
  5.7, 8.1
> C=CCN(CC(=O)N1CCc2sccc2C1c1ccc(Cl)cc1)S(=O)(=O)c1ccc(F)cc1 (stereo unspecified)
  -2.6, 6.9

More results.
Values in the order: NPYLR7 agonist, NPYLR7 agonist max-min
> C=CCN1CC(C(=O)N(CC=C)Cc2ccccc2C)CCC1=O (stereo unspecified)
  8.8, 2.4
> Cc1ccccc1Nc1oc2c(c1-c1cccc(Br)c1)c(=O)n(C)c(=O)n2C
  -3.3, -4.8
> C=CCOC(CN1CCN(C(=O)c2cccc(F)c2F)CC1)c1cccc(N2CCCC2)c1 (stereo unspecified)
  4.0, -6.0
> Cc1cccc2c(=O)c(-c3ccc4c(c3)OCO4)c(NC(=O)C(C)C)oc12
  5.2, 2.3
> COCCNC(=O)c1cc(-c2cccc(OC)c2)n2nc(-c3ccccc3)cc2n1
  1.8, 10.5
> CCCCOC1CC(N(C)C(=O)Cc2cccnc2)C1(C)C (stereo unspecified)
  6.7, 4.9
> O=C(NCc1ccccc1O)C1CCN(C(=O)c2cccc3ccccc23)CC1
  -3.1, -3.2
> CCOC(=O)CC(=O)c1sc(SCc2ccccc2)nc1N
  2.4, -0.5
> O=C(c1cccs1)N1CCN(S(=O)(=O)c2cccc(Cl)c2)CC1
  7.2, 11.0
> N=c1oc2c([N+](=O)[O-])cc(Cl)cc2cc1-c1nc2ccccc2s1
  -2.8, -4.9
> O=C(/C=C/c1ccc(-n2ccnc2)cc1)N1CCN(C(=O)C2CC2)CC1
  13.2, 13.9
> COc1cc(NC(=O)CCC2CCCN(C(=O)c3ocnc3C)C2)cc(OC)c1 (stereo unspecified)
  1.0, -3.9
> CCOc1cc(-c2nccn2Cc2cc(-c3cccnc3)no2)ccc1O
  13.4, 3.1
> COc1ccc(-n2ncc(C(C)NCc3c(C)nn(C(C)C)c3C)c2C)cc1 (stereo unspecified)
  -0.2, -5.5
> CCOc1ccc(C)cc1S(=O)(=O)NCc1ccco1
  14.0, 13.2
> CCN1CCN(C(C)(C)CNc2nc(C)cc(C3CCC3)n2)CC1
  -6.2, -7.2
> Cc1ccccc1C1=NOC(CNCc2ccc(C(F)(F)F)cc2)C1 (stereo unspecified)
  -4.2, -10.1
> COc1cccc(CN(Cc2ccc(F)cc2)Cc2nc(C(=O)NCc3ccco3)co2)c1
  16.2, 26.3
> O=C(CN(Cc1ccco1)Cc1cccs1)Nc1cc(F)cc(F)c1
  -3.8, -6.7
> COC(=O)c1ccc(CN(Cc2ccc(OC)cc2)C2CC2)o1
  -5.1, 1.6
> CCOC(=O)C1(CCCc2ccccc2)CCN(C(=O)/C=C/c2cnn(C)c2)CC1
  12.9&15.0, 2.3&11.8
> CCOC(=O)Nc1cc(C)nn1-c1nc(-c2ccc(F)cc2)cs1
  -6.4, -10.2
> COc1ccc(OC)c(-n2c(C)c(C)n3c4c(=O)n(CC(C)=O)c(=O)n(C)c4nc23)c1
  3.2, -5.7
> C/C(=C\c1ccc(C)cc1)C(=O)c1ccccc1
  2.8, 4.7
> O=C(CSc1n[nH]c(=O)c2cc(-c3ccco3)nn12)NCc1ccccc1Cl
  1.2, 2.0
> CCN(CC)C(=O)Oc1ccc2c(ccn2Cc2cccc(SC(F)(F)F)c2)c1-c1ccc(OC)c(OC)c1
  11.5, 1.8
> CCOc1ccc(N=C2SC(C(=O)O)CC(=O)N2C)cc1 (stereo unspecified)
  -11.7, -15.4
> O=C(COCc1ccccc1)N1CCN(c2cc(Oc3ccc(F)c(Cl)c3)ncn2)CC1
  -9.1, 7.5
> CCCc1nc2ccc(NC(=O)c3ccccc3OC)cn2n1
  -9.0, -11.7
> CCc1ncc(C(=O)NC(c2ccccc2)c2ccco2)cn1 (stereo unspecified)
  10.1, -1.3
> CC(O)CN(Cc1cccc(F)c1)Cc1ccco1 (stereo unspecified)
  -5.0, 6.8
> COc1ccc(-c2ccc(C3NCCc4[nH]cnc43)cc2)cn1 (stereo unspecified)
  5.9, 0.8
> O=C(c1ccc(-c2ccn[nH]2)cc1)N1CCC2(CCCNC2)C1 (stereo unspecified)
  0.3, 1.1
> Cc1nc(N2CCOCC2)sc1C(=O)NNS(=O)(=O)c1cccc(F)c1
  3.3, 3.1
> COc1cc(C2c3cccn3CCCN2Cc2cc(C)ccc2C)cc(OC)c1OC (stereo unspecified)
  32.3, 40.4
> COCc1nc(N(C)Cc2cc(-c3cccnc3)no2)c2cnn(C)c2n1
  6.5, 1.2
> CCc1[nH]nc(NC(=O)c2cc(-n3cccn3)ccn2)c1C
  3.0, 2.3
> CC(C)N(C)CCCCNS(=O)(=O)c1ccc(Br)s1
  10.4, 10.7
> COc1ccc(C2CC(C(F)(F)F)n3ncc(C(=O)N4CCCCC4)c3N2)cc1OC (stereo unspecified)
  -9.1, -11.0
> COC(=O)C1=C(C)N(C)C(C)=C(C(=O)OC)C1c1cccs1
  1.5, 1.7
> O=C(c1cc(CN2CCOCC2)on1)N(Cc1ccccc1Cl)C1CC1
  7.4, 4.5
> CSCC(C)OC(=O)c1cc(-n2cccn2)ccn1 (stereo unspecified)
  -7.5, -8.9
> COc1ccc(-c2onc(C)c2-c2ccccc2OC)c(O)c1
  4.3, -0.8
> COc1ccc(C(=O)N2CCN(c3nc(C(C)C)nc4sc(C)c(C)c34)CC2)cc1
  -11.2, -9.1
> CCCCn1c(=O)c2oc3ccccc3c2n(CC(=O)Nc2c(C)cc(C)cc2C)c1=O
  3.3, 4.1
> CCOC(=O)c1ccc2c(c1)nc(SCc1cccc(C(=O)OC)c1)n2CCOC
  1.4, 1.6
> CCc1ncn(C)c1NC(=O)CCS(=O)(=O)c1ccc(C)cc1
  0.1, -0.4
> Cc1ccc(C(=O)NCCc2cc3ccc(C)c(C)c3[nH]c2=O)cc1C
  4.5, 1.3
> CCOC(=O)C1COc2cc(-c3oc4ccccc4c(=O)c3C)ccc2O1 (stereo unspecified)
  -1.5, 4.6
> O=C(CCl)Nc1ncc(Cc2ccccc2)s1
  -2.7, -4.0
> COc1cccc(F)c1C(=O)Nc1ccn(C)n1
  4.3, 2.3
> Cc1ccccc1C(=O)N1c2ccccc2CC1C(N)=O (stereo unspecified)
  -4.0, -8.1
> Cc1nc(NCCNC(=O)Nc2cccc(Cl)c2C)cc(N(C)C)n1
  -1.1, -2.6

The list is partial. The share of hits here may be higher or lower than overall.
